# Assay outcomes: PubChem BioAssay, several laboratories
# Beta apoptosis – blocks beta cell apoptosis. 300,000 tested, 0.8% active. protection from apoptosis, % (no concentration beside the values). INS-1E cytokine-induced death, ATP luminescence, 48 h; percent of positive-control rescue, neutral wells zero;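 active = all replicates at 75% or more, or half of them and the mean; inconclusive = half reach 75% but not the mean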;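 also: 0% = cytokine-treated negative control wells and 100% = positive control rescue; higher means more ATP so stronger rescue from cytokine killing; wells of about 40 µL received 100 nL stock; the first replicate is given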
# Bfl-1 A1 inh – inhibitors of the anti-apoptotic protein A1, read as caspase activation; AID 2462; 330,000 tested, 0.066% active; caspase activation, % (concentration not given with the values); MEF A1-2A-BIM cells, Caspase-Glo 3/7 luminescence, 3 h; percent of clofoctol response, vehicle zero;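 active = over half of replicate activation scores above 10%, or exactly half above 10 with the replicate mean above 10; inconclusive = replicate mean below 10 yet half the replicates above 10; inactive = over half of replicates below 10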;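 also: wells of about 30 µL received 50 nL stock; many hits fall short of the cut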
# T cruzi repl – blocks replication of Trypanosoma cruzi | inhibition, % (test concentration not listed) | T. cruzi beta-gal in NIH3T3, luminescence, 90 h | 300,000 tested, 1.4% active | AID 1885;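 active = mean inhibition across valid replicates above about 55%, limit read from the data; inconclusive = mean below that limit but half or more replicates reach it; inactive = mean below it, under half of replicates reach it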;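 also: signal also drops with host cell toxicity which is not excluded here; 0% = plate median of DMSO wells and 100% = zero luminescence signal; higher percent means less beta-gal luminescence so fewer parasites; stock transfer was 50 nL into about 50 µL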
# Calb FLC – affects C. albicans growth with fluconazole. growth inhibition, % (no concentration beside the values). C. albicans CaCi-2 (fluconazole-resistant clinical isolate) + fluconazole, Alamar Blue growth, 48 h. 300,000 tested, 0.57% active. AID 1979;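 active = most replicates above 75%; inconclusive = exactly half above 75%; inactive = most below 75%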;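 also: all wells also contain fluconazole at 8 µg/ml as a sub-toxic cotreatment; 0% = median of DMSO wells and 100% = median of geldanamycin control wells; wells of about 8 µL received 7.5 nL stock; the first replicate is given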
# AF4-AF9 inh – blocks AF4 peptide binding to human AF9; P42568; AlphaScreen, biotin-AF4 peptide binding to FLAG-AF9; inhibition, % at 10 µM; 350,000 tested, 0.47% active;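 active = every replicate reaching a set inhibition limit, whatever the replicate mean, cut at about 25% in these data; inconclusive = mean inhibition reaches that limit but some replicates miss it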;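 also: 0% = plate neutral control median and 100% = total signal loss; the record names both 10 and 1 µM as test concentration; the first replicate is given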
# LANA-H2A inh – blocks KSHV LANA binding to histone H2A/H2B; Q9QR71; cell-free LANA-H2A/H2B peptide, fluorescence polarization; inhibition, % (concentration not given with the values); 320,000 tested, 0.6% active; in the data active = inhibition mostly above about 10%, no sharp cut-off; inactive = mostly below about 6.7%;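 also: stock transfer was 7.5 nL into about 10 µL; 0% = median of vehicle wells and 100% = median of positive control wells; one replicate is shown; the record names a cut of 25% in any replicate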
# Target sequence (Q9QR71 whole entry, looked up): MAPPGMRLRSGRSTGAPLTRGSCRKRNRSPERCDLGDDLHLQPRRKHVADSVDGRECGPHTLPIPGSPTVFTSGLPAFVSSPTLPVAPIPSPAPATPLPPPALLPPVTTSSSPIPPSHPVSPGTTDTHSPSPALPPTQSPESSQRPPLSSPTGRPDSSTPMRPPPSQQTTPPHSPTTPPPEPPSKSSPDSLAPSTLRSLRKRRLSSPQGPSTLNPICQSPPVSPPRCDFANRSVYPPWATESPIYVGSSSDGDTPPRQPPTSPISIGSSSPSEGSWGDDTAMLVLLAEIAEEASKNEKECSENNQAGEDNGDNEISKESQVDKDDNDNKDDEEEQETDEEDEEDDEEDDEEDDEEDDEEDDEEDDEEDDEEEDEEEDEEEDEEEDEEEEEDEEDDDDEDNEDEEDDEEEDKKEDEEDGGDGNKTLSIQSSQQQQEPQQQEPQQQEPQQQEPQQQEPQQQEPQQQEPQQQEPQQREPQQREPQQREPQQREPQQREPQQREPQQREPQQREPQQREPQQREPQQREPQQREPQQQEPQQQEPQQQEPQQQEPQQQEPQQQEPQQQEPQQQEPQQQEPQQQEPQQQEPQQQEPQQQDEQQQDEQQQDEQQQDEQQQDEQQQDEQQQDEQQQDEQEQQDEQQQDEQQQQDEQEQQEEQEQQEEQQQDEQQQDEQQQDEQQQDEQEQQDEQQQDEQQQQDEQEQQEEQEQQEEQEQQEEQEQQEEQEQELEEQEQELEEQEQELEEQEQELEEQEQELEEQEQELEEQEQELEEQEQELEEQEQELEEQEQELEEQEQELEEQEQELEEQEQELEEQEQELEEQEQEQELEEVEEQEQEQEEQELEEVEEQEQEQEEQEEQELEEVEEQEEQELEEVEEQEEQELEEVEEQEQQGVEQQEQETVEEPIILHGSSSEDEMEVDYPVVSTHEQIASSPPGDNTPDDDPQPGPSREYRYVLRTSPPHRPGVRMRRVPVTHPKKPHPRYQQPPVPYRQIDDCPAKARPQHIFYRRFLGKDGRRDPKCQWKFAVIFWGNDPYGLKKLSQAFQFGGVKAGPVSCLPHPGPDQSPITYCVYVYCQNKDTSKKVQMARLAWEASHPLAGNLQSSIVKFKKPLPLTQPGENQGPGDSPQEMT
# Vif A3G – HIV-1 Vif–A3G interaction blockers – biochemical, TR-FRET, GST-Vif 1-94, biotin-A3G peptide, dose response retest, primary screen (AID 1117319); TR-FRET GST-Vif / biotin-A3G peptide binding; higher % means a stronger effect; test concentration not given here; strong numbers were not always called active; inhibition, %, or IC50 in µM where a hit was titrated; 260,000 tested, 0.57% active;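 active = above the screen mean plus three standard deviations and confirmed in dose response; inconclusive = results disagree or hit not tested in dose response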;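 also: Vif residues 1-94 fused to GST binding biotinylated APOBEC3G peptide 110-148; 0% = full assay without inhibitor and 100% = GST in place of GST-Vif; retest series ran down from 100 µM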
# RanGTP-Impb inh – inhibitors of RanGTP-importin-beta interaction, primary screen, biochemical, FRET, CFP-Ran, YFP-importin-beta, homogeneous; 300,000 tested, 1.1% active; inhibition, % (concentration not given with the values); AID 2216; cell-free CFP-Ran/YFP-importin-beta FRET ratio;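 active = most replicates above 15%; inconclusive = exactly half above 15%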;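 also: 0% = DMSO wells and 100% = Ran loaded with GDP instead of GTP; wells of about 40 µL received 100 nL stock; the first replicate is given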
# * hit, by the source's call; ? = inconclusive; / = not tested or not shown.
SMILES,Beta apoptosis,Bfl-1 A1 inh,T cruzi repl,Calb FLC,AF4-AF9 inh,LANA-H2A inh,Vif A3G,RanGTP-Impb inh
CCC(=O)Oc1oc(-c2ccccc2)nc1C=Nc1ccc(C)cc1,-11,0.2,8,6,-2.8,-0.1,-8%,-1.2
CN(Cc1cccs1)C(=O)CN1C(=O)c2ccccc2S1(=O)=O,-2,0.7,/,/,2.1,-1.9,-12%,/
Cc1c(Cl)cccc1NC(=O)Nc1ccc(C(N)=O)cc1,-4,0.0,-36,0,0.4,7.2,3%,-1.6
Cc1nn(CC(=O)N2CCN(C)CC2)c(=O)c2ccccc12,-1,0.6,-9,-2,-0.1,-2.0,3%,0.6
Cc1ccsc1/C=C1\SC(N2CC(C)OC(C)C2)=NC1=O (stereo not drawn),-5,0.1,-13,12,/,-1.7,-16%,7.6
Cn1cc(Cl)c(C(=O)NC(=S)Nc2sc3c(c2C#N)CCCCC3)n1,-1,0.2,-6,7,-0.5,4.6,/,-1.1
CCOc1cc2c(C#N)c(N3CCNCC3)nc(N)c2c(N)n1,-2,0.5,-11,-1,/,2.0,2%,0.0
O=C(O)CCN1C(=O)c2ccc(NC(=O)c3ccco3)cc2C1=O,-7,0.2,/,-1,-0.2,1.9,/,-0.2
O=C(C(Sc1ccccc1)c1ccccc1)N1CCOCC1 (stereo not drawn),-5,0.1,-12,1,/,-2.7,10%,5.6
Cc1cc(NC(=O)c2cccc(S(=O)(=O)N3CCCC3)c2)no1,1,0.4,3,-5,/,-12,0%,7.3
CC(=O)C1=C(C)NC(=O)NC1c1cc(Br)ccc1OCC#N (stereo not drawn),2,-0.2,-11,5,/,1.2,/,3.0
Cc1cc(-c2cccs2)nc(-n2cccc2)n1,2,-1.0,-12,-4,/,1.9,6%,-1.6
Cc1cc(C)cc(N(CC(=O)NC2CCCC2)C(=O)c2csnn2)c1,6,-0.4,-2,-1,1.6,-1.2,-1%,1.1
Cc1ccc(-c2n[nH]c(=O)c3ccccc23)cc1S(N)(=O)=O,0,0.4,-6,-2,0.2,6.1,/,?
C/C(=N\NC1=NCCN1)c1ccc(N)c([N+](=O)[O-])c1,-1,-0.3,28,5,/,0.8,?,1.8
O=C(NCCCN1CCOCC1)c1cc(Cl)ccc1OCc1ccccc1,-3,0.3,15,-7,3.4,3.5,5%,1.2
Cc1[nH]c2ccccc2c1C(=O)CN1C(=O)C(=O)N(CCC2=CCCCC2)C1=O,-4,-0.4,/,/,-0.4,2.3,/,/
COc1cc(CCCN2CCNC[C@H]2Cc2cccc3ccccc23)cc(OC)c1OC,-2,1.5,/,/,12,-3.2,/,/
C=CCNC(=O)CSc1cc([N+](=O)[O-])cc(S(=O)(=O)Cc2ccccc2)c1,-7,0.9,25,-3,-0.8,-10,-6%,0.2
O=C1CC(=O)NC(SCC(=O)Nc2ccccc2[N+](=O)[O-])=N1,-4,-0.1,0,-11,-2.4,-23,/,?
CC1Cc2ccccc2N1C(=O)CSc1ncccn1 (stereo not drawn),2,0.1,-4,-4,0.0,30*,/,-3.6
CC(C)(C)C(=O)Nc1ccc(C(=O)OC2CCCCC2)cc1,5,0.3,15,33,/,-1.2,-3%,-1.5
OC(CNCc1ccco1)COc1ccccc1 (stereo not drawn),/,/,-34,-3,/,/,0%,6.4
CCOCCN(C(=O)COC)c1cccc(OC)c1,/,0.8,7,2,/,-1.2,-2%,5.2
CN(C(=O)c1ccc(OC2CCN(CCc3ccccc3)CC2)cc1)C1CCOC1 (stereo not drawn),-1,1.2,-10,-10,-0.2,-3.1,10%,-2.9

# Entries listed so far shown as hits in LANA-H2A inh:
SMILES,AF4-AF9 inh,LANA-H2A inh,Vif A3G,RanGTP-Impb inh
CC1Cc2ccccc2N1C(=O)CSc1ncccn1 (stereo not drawn),0.0,30*,/,-3.6

# (further entries)
SMILES,Beta apoptosis,Bfl-1 A1 inh,T cruzi repl,Calb FLC,AF4-AF9 inh,LANA-H2A inh,Vif A3G,RanGTP-Impb inh
COc1ccc(S(=O)(=O)N2CC(C)N(C(=O)N3CCOCC3)C2)cc1 (stereo not drawn),-5,1.1,-8,15,0.0,3.4,/,4.8
CCOC(=O)C1CN(S(=O)(=O)c2cc(OC)ccc2OC)C1,-1,0.0,-18,-8,0.3,-6.8,-6%,-2.0
CCCNC(=O)c1ccc2c(c1)ncn2-c1cc(C)cc(C)c1,11,0.4,5,8,0.2,4.3,5%,3.8
CCOC(=O)c1c(C)[nH]c(C(=O)OCc2ccc([N+](=O)[O-])cc2)c1C,7,-0.2,21,56,2.5,-12,/,4.0
CC(C)CC(=O)Nc1ccnn1C1CCN(C(=O)c2ccc(Cl)cc2F)CC1,-5,-0.5,-9,-5,0.6,-3.4,/,2.3
O=C(Cc1ccc(Br)cc1)N1CCN(c2ccccc2O)CC1,4,0.1,3,15,/,-6.5,?,1.4
OC1COC(OCc2ccccc2)C(O)C1O (stereo not drawn),3,1.8,-2,-3,-23,1.0,/,-3.2
CN(C(=O)CC1C(=O)NCCN1Cc1ccoc1)C1CCOCC1 (stereo not drawn),-2,1.1,-23,4,-2.6,-6.0,/,1.8
CC1CCCC(C)N1C(=O)COC(=O)CNC(=O)c1ccccc1 (stereo not drawn),3,-0.6,/,/,-0.6,0.4,-6%,/
CC(=O)Nc1ccccc1NC(=O)C/C(C)=N/NC(=O)C1CCCCC1,-1,0.9,-3,0,-1.8,-5.5,/,-1.0
CCOc1ccc(S(=O)(=O)N2CCN(CC)CC2)cc1NC(=O)c1ccccc1F,6,-0.3,19,2,4.6,-0.1,/,-2.4
CC(=O)N1CCCN(Cc2nc(C3(c4ccc(C)cc4)CCCC3)no2)CC1,/,0.3,5,-5,-9.5,-2.6,-1%,3.2
COC(=O)NC1CCS(=O)(=O)C1 (stereo not drawn),-7,-0.4,-2,-6,/,0.6,-3%,?
COc1ccccc1NC(=O)C1=C(C)Nc2nc(CCCO)nn2C1c1ccc2c(c1)OCO2 (stereo not drawn),-2,1.1,-10,-45,/,3.3,7%,-0.1
Brc1ccc2[nH]c3c(NCc4ccccn4)ncnc3c2c1,0,1.3,10,5,0.9,2.4,-7%,5.1
Cc1cccc(-c2nnn(Cc3nnc(NC(=O)c4ccccc4)s3)n2)c1,-5,0.7,6,11,/,1.9,-10%,-1.9
COc1ccc(-c2[nH]ncc2CN(C)C(C)c2ccon2)cc1F (stereo not drawn),2,-0.1,8,-8,0.4,2.5,23%,-3.8
COc1ccc(CSc2nnnn2-c2ccc(C(=O)O)cc2)cc1,3,-0.6,-13,-11,-3.3,0.4,-3%,-0.2
O=C(O)c1cc(S(=O)(=O)N2CCCCC2)ccc1N1CCCC1,1,0.3,/,/,-4.4,2.8,/,/
O=C(CN1CCN(S(=O)(=O)c2ccccc2[N+](=O)[O-])CC1)NC(=O)NCc1ccco1,-4,0.7,-7,-6,2.4,-1.1,5%,-1.2
CCOc1ccccc1C1C(C#N)=C(SCC(=O)OC)NC(=O)C1C(=O)OC (stereo not drawn),-3,0.0,-10,2,/,1.5,-2%,-3.1
CC(=O)Nc1nnc(C)s1,-3,0.1,-15,-3,-13,-0.9,13%,2.0
CC1CCN(c2c(NCc3ccc(C(=O)NCCc4ccc(Cl)cc4)cc3)c(=O)c2=O)CC1,2,1.0,2,1,-47,13,/,5.8
Cc1nnc(SCC(=O)N(C2CCCCC2)C2CCS(=O)(=O)C2)n1C (stereo not drawn),-13,2.8,/,/,-1.6,2.5,19%,/
COC(=O)c1ccccc1NC(=O)CNC(=O)c1ccc(OC)cc1,-1,-0.7,-11,-4,-4.1,-1.5,86%,-4.3

# Going on with the list:
SMILES,Beta apoptosis,Bfl-1 A1 inh,T cruzi repl,Calb FLC,AF4-AF9 inh,LANA-H2A inh,Vif A3G,RanGTP-Impb inh
Cc1ccccc1OCC(=O)Nc1nc2ccccc2[nH]1,14,-0.4,-9,-4,-0.3,11,-7%,0.1
Cn1cc(CN2CCN(c3ccc(Cl)cn3)CC2)c(-c2ccccc2F)n1,1,-0.4,18,-10,8.3,4.4,16%,-3.3
N#C/C(=C/c1cn(-c2ccccc2)nc1-c1cccc(S(=O)(=O)N2CCCC2)c1)C(=O)NCc1ccco1,5,-0.4,24,3,/,-8.9,6%,1.1
Cc1nn(C)c(Oc2ccccc2)c1CCNS(=O)(=O)c1ccc(F)cc1,1,1.0,-9,-2,/,-0.3,1%,3.6
Cc1ccc(S(=O)(=O)CCC(=O)OCC(=O)NC(=O)c2ccccc2)cc1,/,-0.5,5,0,0.6,-0.7,-4%,8.1
CCOC(=O)CNC(=O)CSc1nnc(NC(=O)c2ccc3c(c2)OCO3)s1,-7,-6.7,-9,/,-0.5,-5.8,2%,/
COc1ccc(C(=O)NCCn2cc(SCC(=O)N3CCOCC3)c3ccccc32)cc1,1,0.6,7,2,/,0.7,15%,9.2
O=C1CCC([N+](=O)[O-])C(c2ccc(Br)cc2)N1 (stereo not drawn),2,-1.6,-13,3,/,1.6,15%,0.9
CC(=O)Nc1ccc(NC(=O)CSc2nnc(-c3ccccc3)n2Cc2ccc3c(c2)OCO3)cc1,-5,0.6,20,3,/,4.2,-8%,?
CCOC(=O)c1cc(-c2ccccc2C)nn1CC1CC(c2cccnc2)=NO1 (stereo not drawn),-7,0.0,/,/,-7.7,-1.7,/,/
O=C(ONc1ccc(N=NC(=O)c2ccccc2O)cc1)c1ccccc1,2,-14,-10,-29,/,-4.9,?,-1.2
O=C(NCc1ccccc1)C1=C[C@@H](c2csc3ccccc23)C[C@@H](OCCCCO)O1,116*,0.5,44,-5,-14,-3.6,/,-8.7
Cc1ccccc1CN1CCC(N2CCC(C(=O)NCC3CCCO3)CC2)CC1 (stereo not drawn),1,1.1,18,11,2.6,0.2,/,1.5
CC1(C)CC(=O)c2cnc(N)nc2C1,-3,1.1,-7,4,/,-4.6,-2%,-1.2
CCOC(=O)c1c(NC(=O)Cn2nc(C(F)(F)F)cc2C)sc(C)c1C,5,1.2,22,0,/,3.7,2%,2.8
O=[N+]([O-])c1ccccc1Oc1cnc2ccccc2n1,-6,-0.4,-15,25,0.5,1.5,-3%,0.5
COc1ccc(NC(=O)c2ccc(OC)c(S(=O)(=O)N3CCCCC3C)c2)cn1 (stereo not drawn),2,1.9,/,/,3.8,3.6,/,/
COc1ccccc1CN(C)C(=O)CN1CCN(C(=O)c2cccs2)CC1,1,0.0,/,/,2.4,-0.4,104%,/
FC(F)(F)c1cccc(N2CCN(Cc3cccnc3)CC2)c1,2,-0.3,46,3,/,-0.2,-4%,-3.9
COc1ccc(C(CC(=O)O)NC(=O)C2CCCCC2)cc1 (stereo not drawn),-5,0.8,-12,3,/,-2.9,-1%,-0.7
Nc1cc(-c2ccccc2)n2c(n1)nc1ccccc12,12,?,-4,-6,-2.7,4.7,-5%,7.6
N#C/C(=C\N1CCOCC1)C(N)=O,-3,0.3,-10,-5,-1.9,1.3,-10%,-2.7
N#Cc1nc(COc2ccccc2)oc1N1CCCCCC1,-1,0.9,3,-13,27*,-3.1,2%,0.2
CC(=O)c1cc(Cl)ccc1OC(=O)c1ccco1,-6,0.2,-12,-20,/,-0.9,3%,-2.8
CCOC(=O)C1CN(S(=O)(=O)c2ccccc2)C1,-4,0.8,1,0,/,2.6,-1%,?
